TexasRed fluor: Total Fluorescence Counterscreen for Inhibitors of the Interaction of Thyroid Hormone Receptor and Steroid Receptor Coregulator 2 | TRb/SRC2 Texas Red total fluorescence interference | Potency, µM (doses to about 106 µM), for inactives: at the top dose fluorescence change, negative = quenching | 0.29% of 280,000 active; active means well fitted curve in either direction with a large enough effect; inconclusive means small, poorly fitted or top-dose-only effect
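Human TRb ligand-binding domain at 0.6 uM with 20 nM Texas Red SRC2 peptide in Tris buffer containing 1 uM T3 and 5% DMSO, incubated with compound 5 h at ambient temperature. Total fluorescence (555/632 nm) calculated as parallel + 2 × perpendicular.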
GAA spleen mod: qHTS Assay for Inhibitors and Activators of Human alpha-Glucosidase From Spleen Homogenate | human spleen homogenate, 4-MU-alpha-glucoside fluorescence | Potency, µM (highest dose often 79.9 µM), without a hit: at the highest dose activity change, negative = inhibition, usual class: inhibitors | 0.006% of 240,000 active;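 further: 0% = enzyme with vehicle and -100% = no enzyme basal signal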
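AC50 values come from Hill-equation fits of concentration-response data, normalized to no-enzyme and full-activity controls. Enzyme source: 1 ug human spleen homogenate; 1 mM fluorogenic 4-MU glucoside, pH 5.0 citrate buffer, 37 C, 40 min.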
TRb SRC2 PPI: qHTS for Inhibitors of the Interaction of Thyroid Hormone Receptor and Steroid Receptor Coregulator 2 | Thyroid hormone receptor beta (Homo sapiens), P10828 | TRbeta-SRC2 peptide binding, fluorescence polarization; receptor liganded with 1 µM T3 | Potency, µM (series often up to 106 µM), for the others: at the top dose activity change, negative = inhibition, most hits filed as inhibitors | 0.065% of 280,000 active;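 further: plate controls were bound peptide for no effect and peptide without receptor for full effect; nearly all actives have a fitted effect of over 50% in size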
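Compounds were added to 0.6 uM TRb ligand-binding domain and 20 nM Texas Red-labeled SRC2 peptide in Tris buffer containing 1 uM T3, incubated 5 hr at ambient temperature, then read by fluorescence polarization.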
L3MBTL1 inh: qHTS Assay for the Inhibitors of L3MBTL1; Lethal(3)malignant brain tumor-like protein 1 (Homo sapiens), Q9Y468; AlphaScreen L3MBTL1–H3K9me1 peptide binding; Potency, µM (doses to about 57.1 µM), without a hit: at the highest dose activity, negative = inhibition, most hits filed as inhibitors; 0.66% of 230,000 active; AID 485360, 2010; further: nearly all actives have a fitted effect of over 60% in size
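AlphaScreen assay: L3MBTL1 (50 nM final) was preincubated 30 min at room temperature with biotinylated H3(1-15)K9me1 peptide (75 nM final), then 30 min with library compounds; streptavidin donor and nickel chelate acceptor beads (10 ug/mL final) added, 30 min dark.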
GAA inhib: qHTS Assay for Inhibitors of Human alpha-Glucosidase as a Potential Chaperone Treatment of Pompe Disease | Lysosomal alpha-glucosidase (Homo sapiens), P10253 | purified human GAA, 4-MU-alpha-glucoside fluorescence | Potency, µM (titrated, usually from 76.9 µM), without a hit: top-dose activity change, negative = inhibition, actives largely listed as inhibitors | 0.005% of 200,000 active;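 further: plate controls were uninhibited enzyme wells for no effect and no-enzyme background for full effect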
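Human alpha-glucosidase, 4 nM, pre-mixed with test compounds before 400 uM 4-methylumbelliferyl substrate; 20 min room temperature at pH 5.0. Fluorescence read after pH 10 stop; AC50 values from Hill-equation fits.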
RECQ1 helicase: qHTS Assay for Inhibitors of RecQ-Like Dna Helicase 1 (RECQ1); ATP-dependent DNA helicase Q1 (Homo sapiens), P46063; RECQ1 DNA unwinding, red fluorescence kinetic read; Potency, µM (top dose mostly 57.3 µM), without a hit: at the highest dose activity, negative = inhibition, usual class: inhibitors; 0.54% of 240,000 active; AID 2549, 2010;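 further: plate controls were vehicle for no effect and no enzyme for full effect; nearly all actives have a fitted effect of over 30% in size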
Target sequence (P46063 whole entry, looked up): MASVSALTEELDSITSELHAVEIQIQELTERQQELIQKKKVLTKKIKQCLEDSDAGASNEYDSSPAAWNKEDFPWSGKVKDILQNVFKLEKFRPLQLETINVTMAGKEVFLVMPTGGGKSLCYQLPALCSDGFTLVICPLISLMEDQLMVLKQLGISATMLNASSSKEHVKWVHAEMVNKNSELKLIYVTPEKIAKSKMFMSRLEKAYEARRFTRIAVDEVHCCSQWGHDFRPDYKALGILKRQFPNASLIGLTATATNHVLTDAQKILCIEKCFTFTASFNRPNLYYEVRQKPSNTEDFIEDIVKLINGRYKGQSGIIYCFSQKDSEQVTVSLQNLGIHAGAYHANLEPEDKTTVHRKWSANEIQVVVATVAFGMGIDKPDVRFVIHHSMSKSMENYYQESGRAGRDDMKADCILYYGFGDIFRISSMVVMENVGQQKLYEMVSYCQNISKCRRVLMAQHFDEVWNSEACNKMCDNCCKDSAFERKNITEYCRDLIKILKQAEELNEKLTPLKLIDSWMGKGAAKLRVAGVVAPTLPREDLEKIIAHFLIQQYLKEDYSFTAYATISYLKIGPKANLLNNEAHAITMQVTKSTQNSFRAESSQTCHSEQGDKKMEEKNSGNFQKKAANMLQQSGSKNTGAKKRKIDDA
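50 nM RECQ1T1 preincubated 15 min with compound in Tris pH 8.0 buffer with MgCl2, DTT, Tween-20 and 2.5 ug/ml poly(dI-dC); started with 200 nM TAMRA/BHQ-2 forked duplex and 2 mM ATP. Unwinding read as fluorescence (525/598 nm), two reads 2 h apart.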
GAA glycogen: qHTS Assay for Inhibitors and Activators of Human alpha-Glucosidase Cleavage of Glycogen | recombinant GAA, glycogen substrate, Amplex Red glucose oxidase fluorescence | Potency, µM (doses to about 76.4 µM), without a hit: at the highest dose activity change, negative = inhibition, most hits filed as inhibitors | 0.38% of 300,000 active | AID 2100, 2009;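 further: 0% = full enzyme reaction and -100% = no-enzyme basal signal; the screen sought inhibitors and activators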
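qHTS, 1536-well; enzyme 4 nM final; cpd up to 77 uM; substrate bovine liver glycogen 30 ug; 50 mM citrate/phosphate pH 5.0, 0.01% Tween-20; 37 C, 40 min; Amplex Red detection 45 min RT; Hill fit → AC50.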
* = called active by the depositor; i = inactive; u = inconclusive; x = not tested or not shown; [ ] = dose if it differs, or a comment. Unless noted, the call rests on the fitted dose curve; in most records, active means well fitted curve in the direction sought with a large enough effect; inconclusive means small, poorly fitted or top-dose-only effect, or another doubt; inactive means no such curve, though single readings can be large; an effect the other way counts as inactive or inconclusive. Unless noted, on the % scale 0 is the no-effect control and ±100 the full control effect; potency means the concentration at half of the fitted maximal effect. Not all compounds are listed (hit frequency here may not be typical).

Results follow in this order: TexasRed fluor | RECQ1 helicase | TRb SRC2 PPI | L3MBTL1 inh | GAA inhib | GAA spleen mod | GAA glycogen
COc1ccc(CNc2cc(NCCCO)c([N+](=O)[O-])c3nonc23)cc1
    -1% | 0% | 10% | x | 3% | -5% | -13%
Clc1ccc(CNC2CCCC2)cc1
    -2% | -4% | 2% | x | -2% | -4% | -3%
Oc1ccc(CNC2CCCCC2)cc1
    1% | -7% | 7% | 0% | 6% | -6% | 10%
CC1CN(c2cc(=O)n(Cc3ccc(F)cc3)c(=O)[nH]2)CC(C)O1 (stereo unspecified)
    1% | -1% | -16% | x | -7% | -8% | 6%
CC1CN(c2cc(=O)n(-c3ccccc3)c(=O)[nH]2)CC(C)O1 (stereo unspecified)
    -3% | -7% | 4% | 2% | 1% | 5% | 4%
O=S(=O)(NCc1csc(-c2cccs2)n1)c1ccccc1
    1% | -10% | 0% | -3% | x | -2% | 4%
Nc1c(C(=O)C2CC2)sc2nc(-c3ccccc3)cc(C(F)(F)F)c12
    -2% | 5% | -2% | 13% | -6% | 2% | 2%
COc1ccc(C(=O)N2CCC[C@@]3(CCN(C(=O)Nc4cccc(C#N)c4)C3)C2)cc1
    x | -6% | x | x | x | 10% | x
CCn1c(COc2ccccc2)nnc1SCC(=O)NCc1ccco1
    -3% | i | -3% | 3% | 15% | 3% | 15%
CCOc1ccc(NC(=O)CSc2nnc(Cn3cnc([N+](=O)[O-])n3)n2CC)cc1
    2% | -1% | 4% | x | 4% | -6% | 2%
CCN(CC)C(=O)CSc1nc(O)cc(=O)n1C
    1% | i | -3% | x | -9% | -1% | -11%
O=[N+]([O-])c1cc(CN2CCN(c3cccc(C(F)(F)F)c3)CC2)c2cccnc2c1O
    -2% | -6% | -4% | x | -6% | -16% | 9%
CCN1CCN(C(=O)c2ccc(Cl)c(S(=O)(=O)N3CCOCC3)c2)CC1
    -1% | -10% | 5% | x | 1% | 1% | 9%
CS/C(N)=N/C(=S)Nc1cccc(Cl)c1
    -3% | i | -3% | -11% | x | 0% | u
CCOC(=O)c1[nH]c2ccc(OC)cc2c1NC(=O)CCN1CCC(C)CC1
    5% | -11% | 3% | x | 0% | -1% | 20%
O=C(C(c1ccccc1)N1CCOCC1)N1CCOCC1 (stereo unspecified)
    -1% | -6% | 7% | x | 4% | 3% | 3%
CSCC[C@@H](C(=O)O)N1Cc2ccccc2C1=O
    5% | -13% | -21% | x | -6% | 4% | 4%
COc1cc(C)c(S(=O)(=O)NCc2ccc3c(c2)OCO3)cc1C
    1% | -11% | 0% | x | u | 5% | -13%
COC(=O)CCN(C(=O)C12CC3CC(CC(C3)C1)C2)c1ccccn1
    3% | i | -17% | x | -3% | -16% | -2%
Cc1csc2c(N3CCN(C(=S)Nc4ccc(C(F)(F)F)cc4)CC3)ncnc12
    -3% | -16% | -10% | x | x | -5% | -10%
CCOc1cc(C2CC(=O)NC3=C2C(=O)C(C(=O)OC)C(C)C3)cc(Cl)c1O (stereo unspecified)
    -3% | -2% | -5% | -4% | 4% | -9% | -30%
Cc1cccc(N2CC(C(=O)OCC(=O)c3ccc(OC(=O)c4cccs4)cc3)CC2=O)c1C (stereo unspecified)
    0% | -5% | 5% | 4% | u | -7% | -2%
N#Cc1ccc(C(=O)N/N=C/c2cn(CC(=O)O)c3ccccc23)c(F)c1
    -5% | i | 8% | 10% | -11% | 2% | 0%
COCCN1CCN(Cc2cn[nH]c2-c2cc3ccccc3o2)CC1
    -1%[53 µM] | 5% | 3%[53 µM] | 5% | -15% | -5% | 8%
CC(=O)Nc1cccc(C(=O)NCC2(N3CCCCC3)CCCCC2)c1
    -1% | i | -3% | x | -7% | -17% | -10%
CC(=O)c1ccc(N2CCN(C(=S)Nc3ccccc3C(F)(F)F)CC2)cc1
    -3% | i | 1% | -2%[11.4 µM] | 0% | -4% | -3%
CCn1c(CCNC(=O)c2ccc(OC)cc2)nnc1SCC(=O)Nc1ccccc1F
    1% | i | 4% | -3%[11.4 µM] | 2% | 5% | -4%
Cc1c(/C=N/NC(=O)CNc2ccccc2)c2ccccn2c1C(=O)c1ccncc1
    -4% | -4% | 6% | -26% | -7% | -9% | 2%
O=C(CN1CCN(c2ccc(O)cc2)CC1)NC(c1ccccc1)c1ccccc1
    1% | -4% | -2% | -29% | 2% | -3% | u
CCCCOc1ccc2c(c1)/C(=C(\C(Cl)=C(Cl)Cl)[N+](=O)[O-])N2
    -4% | -9% | 1% | x | -1% | 6% | -2%
CC[C@H](C)[C@@H]1O[C@]2(CC[C@@H]1C)C[C@H]1C[C@H](CC=C(C)[C@@H](O[C@@H]3C[C@H](OC)[C@H](O[C@@H]4C[C@H](OC)[C@H](O)[C@H](C)O4)[C@H](C)O3)[C@@H](C)C=CC=C3CO[C@@H]4[C@@H](O)C(C)=C[C@@H](C(=O)O1)[C@]34O)O2
    3%[53 µM] | -6%[25.9 µM] | -6%[53 µM] | x | x | 3%[29.1 µM] | x
Cc1ccc2nc3c(nc2c1)-c1ccccc1C3=O
    -5% | i | -3% | x | -3% | 5% | -14%
COc1ccc(C2CC(c3c(-c4ccccc4)c4cc(Cl)ccc4[nH]c3=O)=NN2S(C)(=O)=O)cc1 (stereo unspecified)
    -1% | -23% | -11% | x | 3% | 6% | 5%
CCOc1cc2[nH]c(=S)n(Cc3ccc(C)o3)c(=O)c2cc1OCC
    -1% | -4% | 3% | -1%[11.4 µM] | 2% | 4% | 1%
CCn1nnnc1SCC(=O)NCc1ccco1
    0% | -2% | 1% | 1% | -4% | 3% | -13%
CCC1(C)Cc2c(sc3c2c(=O)n(-c2ccccc2)c(=O)n3C)CO1 (stereo unspecified)
    0% | -5% | 9% | -5% | -4% | -1% | 0%
CC1CN(c2cc(=O)n(-c3ccc(Cl)cc3)c(=O)[nH]2)CC(C)O1 (stereo unspecified)
    -2% | i | 2% | 7% | -4% | 2% | 2%
CC(C)(C)NC(=O)c1cc(F)c(F)cc1Cl
    1% | i | -23% | x | -4% | -1% | 5%
N#Cc1cccc(NC(=O)N2CCC3(CC2)CCN(C(=O)c2cnccn2)CC3)c1
    x | -3% | x | x | x | 7% | x
CC1(C)OC(=O)C(C(c2ccccc2)C(C#N)C(N)=O)=C(O)O1 (stereo unspecified)
    0% | -18% | -17% | -2%[11.4 µM] | -4% | -6% | 7%
CCOC(=O)C1CCN(C(=S)Nc2ccc(CC)cc2)CC1
    11% | -5% | -9% | x | 0% | 4% | -3%
COc1ccc(-c2cnnc(N/N=C/C(C)=C/c3ccccc3)n2)cc1
    2% | -1% | 0% | u | -3% | -12% | 11%
CCCn1nc(NC(=O)CC(C)C)c2cc3ccccc3nc21
    1% | i | -7% | 7% | u | -6% | -10%
O=C(O)c1cc(O)ccc1-c1ccc(O)cc1
    -4% | 0% | 6% | 2% | -4% | -2% | 3%
COc1ccccc1N1CCN(C2=Nc3cccc4cccc2c34)CC1
    -1% | -4% | 3% | x | -6% | -5% | -3%
O=C(NCc1ccc2c(c1)OCO2)c1cccc(N2CCCC2=O)c1
    2% | -7% | 6% | x | -4% | -10% | -4%
O=C(c1cccc(Cl)c1)N1CCC(=O)N([C@H](COCc2cccc(Cl)c2)Cc2ccccc2)CC1
    1% | -15% | 4% | x | x | 1% | x
CC(C)Nc1nc(SCC(=O)Nc2ccccc2)nc(N2CCOCC2)n1
    -1% | -3% | 2% | 3%[11.4 µM] | 0% | -8% | 4%
O=C(CSc1ncn(-c2ccccc2)n1)Nc1nccs1
    1% | -6% | 7% | x | -7% | -5% | 6%
COc1ccc(NC(=O)C(c2cc3c(cc2[N+](=O)[O-])OCO3)N2CCN(C=O)CC2)cc1 (stereo unspecified)
    -1% | 11% | -11% | -3% | 0% | -8% | -2%
C=CCn1c(CCNC(=O)c2cccs2)nnc1SCC(=O)Nc1cccc(F)c1
    0% | i | 5% | x | 0% | -5% | 1%
Cc1[nH]c(=O)[nH]c(=O)c1S(=O)(=O)NCCOC12CC3CC(CC(C3)C1)C2
    1% | -12% | -3% | 2% | -5% | -6% | 4%

Screening data as filed in PubChem BioAssay.
